# CSC inhib – blocks cancer stem cells; cancer stem cell-like cells viability, luminescence; inhibition, % at 7.5 µM; hit rate 1.1% among 300,000; AID 2717;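 active = mean at 75% or more and at least half the replicates too; inconclusive = mean and replicates disagree; tested in HMLE shEcad cells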;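 also: 0% = median of negative and 100% = median of positive control wells; the first replicate is given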
# eIF4H inh – inhibitors of RNA binding by human eIF4H | eIF4H fluorescence polarization binding assay | inhibition, % at 35 µM | hit rate 0.94% among 290,000;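 active = 50% or more with normal probe brightness, or confirmed in later tests; inconclusive = above 50% with abnormal brightness, or retests that disagree; inactive = below 50% or failed in later tests; about a fifth of its hits are not listed in these tables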;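 also: calls also rest on retests at 20 µM and on dose response follow-up; 0% = protein and probe with vehicle and 100% = probe without protein; strong numbers were not always called active; many hits fall short of the cut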
# PABP polyA inh – blocks human PABP binding to poly(A) RNA; P11940; fluorescence polarization; inhibition, % at 35 µM; hit rate 1% among 290,000; AID 2014;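 active = 50% or more with normal probe brightness, or confirmed in later tests; inconclusive = above 50% with abnormal brightness, or retests that disagree; inactive = below 50% or failed in later tests; about a fifth of its hits are not listed in these tables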;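 also: calls also rest on retests at 20 µM and on dose response follow-up; controls were probe without protein and protein plus probe with vehicle; some compounds called inactive have numbers as strong as hits; many hits fall short of the cut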
# Target sequence (P11940 whole entry, looked up): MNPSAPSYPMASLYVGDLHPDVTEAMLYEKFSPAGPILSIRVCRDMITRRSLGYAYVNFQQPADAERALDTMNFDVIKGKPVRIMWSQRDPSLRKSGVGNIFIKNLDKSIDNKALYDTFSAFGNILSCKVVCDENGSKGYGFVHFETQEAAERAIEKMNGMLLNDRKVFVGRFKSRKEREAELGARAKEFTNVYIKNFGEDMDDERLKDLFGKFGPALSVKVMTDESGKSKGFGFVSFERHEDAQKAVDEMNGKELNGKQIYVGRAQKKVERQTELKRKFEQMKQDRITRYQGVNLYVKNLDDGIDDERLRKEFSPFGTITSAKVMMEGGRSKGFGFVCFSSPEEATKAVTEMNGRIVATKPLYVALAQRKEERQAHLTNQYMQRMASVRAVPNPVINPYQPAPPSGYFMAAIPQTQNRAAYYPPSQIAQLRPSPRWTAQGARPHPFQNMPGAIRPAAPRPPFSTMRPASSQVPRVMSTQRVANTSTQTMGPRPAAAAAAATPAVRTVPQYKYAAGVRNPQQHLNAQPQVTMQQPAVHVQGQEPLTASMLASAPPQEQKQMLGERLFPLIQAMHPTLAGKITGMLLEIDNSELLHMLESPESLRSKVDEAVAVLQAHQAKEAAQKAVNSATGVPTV
# Env fusion inh – blocks HIV Env-driven cell-cell fusion | HeLa-JRFL Env/CEM21 cell fusion, luciferase | inhibition, % at 12.3 µM | hit rate 1.1% among 360,000 | AID 651610;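 active = mean replicate inhibition score of at least 50 and every replicate individually at or above 50; inconclusive = only one of the two criteria met; inactive = mean below 50 and not all replicates reaching 50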;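 also: 0% = plate neutral controls and 100% = maraviroc near 300 nM; one replicate is shown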
# MT1-MMP act inh – inhibitors of human MT1-MMP activation | P50281 | HT1080 RFP-PRO-GFP cells, GFP/RFP ratio fluorescence, overnight; percent of plate control window, DMSO zero | GFP/RFP ratio change, % at 20 µM | hit rate 0.061% among 360,000 | AID 651647;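 active = GFP/RFP ratio change of at least 30% with cell ATP level not reduced by more than half and red fluorescence within 50% of control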; also: strong numbers were not always called active
#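 Compound: 20 µM single dose, 1% DMSO / System: HT1080 RFP-PRO-GFP cells / Controls: DMSO and RFP-L50D-GFP cell wells / Read-out basis: GFP/RFP fluorescence ratio / Schedule: overnight compound exposure at 37 °C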
# Rce1 inhib – yeast Ras-converting enzyme inhibition | Q03530 | yeast membranes, quenched prenylated peptide cleavage fluorescence | calls only | hit rate 0.27% among 290,000 | AID 2563;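 active = fall in fluorescence gain of 50% or more versus controls, with final raw signal at or below 3038400; inconclusive = same 50% fall but final raw signal above 3038400; inactive = fall in fluorescence gain under 50%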;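 also: plate controls were neutral control wells for no effect and wells lacking membranes for full effect; tested at 10 µM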
# Target sequence (Q03530 whole entry, looked up): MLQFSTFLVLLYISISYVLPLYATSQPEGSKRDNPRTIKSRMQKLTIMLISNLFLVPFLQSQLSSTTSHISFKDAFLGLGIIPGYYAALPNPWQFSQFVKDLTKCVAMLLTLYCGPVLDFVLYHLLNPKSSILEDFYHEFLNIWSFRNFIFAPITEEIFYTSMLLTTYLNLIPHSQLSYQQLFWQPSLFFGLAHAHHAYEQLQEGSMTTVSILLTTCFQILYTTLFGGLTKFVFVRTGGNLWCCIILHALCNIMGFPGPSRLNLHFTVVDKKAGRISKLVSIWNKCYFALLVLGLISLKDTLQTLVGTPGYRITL
# Yeast UUG start – alters start codon recognition fidelity in yeast; S. cerevisiae UUG-firefly luciferase reporter, luminescence/redox ratio; activity score, % at 18.7 µM; hit rate 0.13% among 350,000;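 active = replicate mean at a twofold rise or more, about +100% in these data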;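 also: firefly luciferase made from a UUG start codon reports start codon fidelity; reporter light over untreated wells divided by growth signal over untreated wells; some hits fall short of that in this replicate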
# eIF4H inh retest – second read-out of eIF4H inh, no call of its own (marks repeat the call); inhibition, %; compound at 20 µM; confirmation average;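 mean of two retest wells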
# PABP polyA inh retest – also measured in PABP polyA inh; calls as there; inhibition, %; compound at 20 µM; confirmation repeats;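 mean of two retest wells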
# MT1-MMP act inh RFP – further read-out of MT1-MMP act inh, marked with its call; RFP signal change, %; measured here: RFP expression control read;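 0 = vehicle wells; hits needed this value within 50% of zero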
# Active calls of the source: *; i = inactive; ? = inconclusive; nt = not tested or not shown. This is a subset; count on the stated rates, not on these rows.
SMILES,CSC inhib,eIF4H inh,PABP polyA inh,Env fusion inh,MT1-MMP act inh,MT1-MMP act inh RFP,Rce1 inhib,Yeast UUG start,others
COc1ccc(CCNC(=S)Nc2ccc(S(=O)(=O)Nc3ncccn3)cc2)cc1OC,0,-4,-6,-2,1,3,i,-21,
CCOc1cc(C(=O)NCCCn2ccnc2)cc(OCC)c1OCC,-2,-7,-1,-9,0,0,i,nt,
O=C(NCc1ccccc1)C1(C(F)(F)F)CC(CCCO)CCCO1 (centres undefined),-7,nt,nt,13,-2,1,i,7,
O=C(CSc1nnc(-c2ccncc2)n1Cc1ccccc1)NC1CCCCC1,-7,-3,4,10,3,4,i,-19,
CCOC1=C2[C@@H](CN(S(=O)(=O)c3ccc(C)cc3)[C@H]2c2ccccc2F)[C@H]2C(=O)N(Cc3ccccc3)C(=O)[C@H]2C1,nt,nt,nt,12,-10,-3,nt,-9,
O=C(NCc1ccccn1)c1cc(S(=O)(=O)N2CCCCCC2)ccc1Cl,-10,0,-11,9,0,-5,i,-15,
COc1cc2ccccc2cc1C(=O)Nc1ccncc1,-7,nt,nt,-80,1,-1,i,-18,
O=[N+]([O-])c1cccc(C2=NC(c3ccccc3)CO2)c1 (centres undefined),4,2,8,-37,0,0,i,-14,
Cc1ccc(CN2CCN(C(=O)CCc3ccccc3)CC2)cc1,nt,2,-2,5,3,-5,i,5,
COc1ccccc1N1C(=O)C2C(c3ccc(F)cc3)NN(C(=O)c3ccc(C)cc3)C2C1=O (centres undefined),4,1,5,5,4,3,i,-14,
CC1CC(C)CN(C(=O)COC(=O)Cc2ccc(Br)cc2)C1 (centres undefined),4,-1,3,0,-1,2,i,-13,
COc1ccccc1CC(=O)N1CCC(CCC(=O)NC2CC2)CC1,-11,6,0,-5,4,0,i,-14,
COc1ccc(CNc2nc(NCc3ccc(OC)cc3)c3[nH]cnc3n2)cc1,-8,8,-9,-3,2,5,i,-7,
O=C(CNC(=O)C1CCCCC1)OCC(=O)c1ccc(Br)cc1,nt,-3,-9,4,0,2,i,-31,
O=C(COC(=O)Cn1nnc(-c2ccccc2)n1)Nc1cc(F)ccc1F,-10,nt,nt,-16,-2,1,nt,-28,
CCOc1ccc(-c2nc(C#N)c(N3CCCCCC3)o2)cc1,37,30,-2,7,1,-3,i,-5,
COc1ccccc1CN(C)C(=O)c1ccccc1SCC(=O)N1CCCC1,-9,nt,nt,nt,-2,-3,nt,-12,
c1ccc2c(-c3cncc4ccccc34)cncc2c1,8,nt,nt,17,-8,-13,i,nt,
CCOC(=O)N1CCN(CC(O)COc2ccc(C)c(C)c2)CC1 (centres undefined),-8,5,17,2,3,2,i,-19,
Cn1ccnc1SCC(=O)Nc1nc2ccccc2s1,3,-4,-6,-47,-2,-4,i,nt,
CCCNC(=O)c1ccc2c(c1)C1C3CCC(C3)C1C(c1ccccc1)N2 (centres undefined),18,3,-2,-28,-8,-9,i,11,
O=C(Nc1ccc(Cl)cc1)c1cccc(N2C(=O)C3C4CCC(C4)C3C2=O)c1 (centres undefined),-3,-3,6,17,6,-4,i,-3,
CC1CN(S(=O)(=O)c2ccc(F)cc2)CN1C(=O)N1CCOCC1 (centres undefined),-5,0,2,-5,0,0,i,-7,
O=Cc1ccc(OCc2nnc(-c3ccccc3Br)o2)cc1,-23,11,0,-7,-3,0,i,-26,
COc1cc(NC(=O)c2ccc(Cl)cc2)c2ncccc2c1,4,-7,-16,7,0,-3,i,-16,
CCCN(CCC)CCCNC(=O)C1c2cc(OC)c(OC)cc2C(=O)N(C)C1c1cccs1 (centres undefined),-15,6,2,-14,nt,nt,i,-3,
O=C(N[C@@H](Cc1ccccc1)C(=O)O)c1ccncc1,-7,-5,13,9,2,5,i,-7,
c1ccc(CSc2nc3ncncc3[nH]2)cc1,-2,2,8,47,-2,4,i,nt,
O=C(C1=C[C@H](c2csc3ccccc23)C[C@H](OCCCCO)O1)N1CCN(Cc2ccccc2)CC1,-5,3,7,21,-4,-6,i,2,
Cc1ccc(O)c(C(=O)CC(=O)c2ccc(C(C)(C)C)cc2)c1,10,-4,1,9,-1,-6,i,-7,
CCn1c(SCC(=O)Nc2nccs2)nnc1C1CC1,-7,-7,-5,10,2,1,i,-10,
COc1ccc(NC(=O)c2c(Cl)nc3ccccn23)cc1,5,-6,-2,-8,2,4,i,nt,
Cc1ccc(Sc2cc(NCCCO)c([N+](=O)[O-])c3nonc23)cc1,7,15,5,-4,-9,-13,i,-10,
CCCC(=O)N1CCc2[nH]c3ccccc3c2C1,-12,0,14,-83,-1,2,i,0,
Cc1cc(OC(=O)c2ccccc2Cl)cc(=O)n1C,-8,1,3,nt,0,7,i,-30,
CC(/C=C1\SC(=S)N(NC(=O)c2ccc(C)cc2)C1=O)=C\c1ccccc1,13,-7,0,nt,2,3,i,-16,
CCNC(=O)COC(=O)C1C(C(=O)OCC)=C(C)NC(C)=C1C(=O)OCC,-12,-7,-12,-2,-2,-1,i,-17,
Cc1ccc2c(c1)c(C)cc(=O)n2CCC(=O)O,8,88*,10,nt,4,-1,i,-4,eIF4H inh retest=92*;PABP polyA inh retest=28
CC(OC(=O)c1cccs1)C(=O)NC1CC1 (centres undefined),-21,-8,1,-13,0,4,i,-5,
O=C1CCC(C(=O)N2CCOCC2)CN1Cc1ccc(Cl)cc1 (centres undefined),4,2,4,-6,3,4,i,-11,
CC(C)(C)c1nnc(NC(=O)COc2ccc3c(c2)OCO3)s1,-8,nt,nt,-42,4,3,i,6,
Cc1sc(NC(=O)c2ccco2)c(CN2CCN(c3ccccn3)CC2)c1C,-3,-6,1,nt,-9,-8,i,-33,
CC(C)CNC(=S)Nc1ccc(F)cc1,nt,-3,-5,11,1,2,i,nt,
O=C(Nc1ccccc1)Nc1cc(S(=O)(=O)N2CCOCC2)ccc1N1CCCC1,-7,0,6,-24,3,1,i,nt,
Cc1ccn2cc(-c3ccc4c(c3)NC(=O)CO4)nc2c1,0,6,?,-43,2,0,i,nt,
O=C(NCc1ccccn1)c1ccc(NS(=O)(=O)c2cccc([N+](=O)[O-])c2)cc1,nt,nt,nt,6,-1,2,nt,-20,
COc1ccc(-c2cc(-c3ccco3)[nH]c(=O)c2C#N)cc1,5,74*,57*,-1,-22,3,i,-3,
CN(C(=O)c1ccc(Cl)cc1)C1CCS(=O)(=O)C1 (centres undefined),-22,nt,nt,nt,3,-3,nt,1,
CC(=O)c1cccc(OCc2cc(C(=O)N3CC4C[C@@H]5CC3C[C@H](C4)C5)no2)c1,62,0,0,13,4,-11,i,11,
Cc1cccc(N2CCN(C(=O)c3ccccc3OCc3c(C)noc3C)CC2)c1C,-16,nt,nt,2,1,-7,i,-14,

# Going on with the list:
SMILES,CSC inhib,eIF4H inh,PABP polyA inh,Env fusion inh,MT1-MMP act inh,MT1-MMP act inh RFP,Rce1 inhib,Yeast UUG start,others
Cc1ccc(C(=O)NC(=S)NCc2ccco2)cc1,-8,0,6,-16,4,3,i,nt,
O=C(Cn1cnc([N+](=O)[O-])n1)c1ccccc1,-5,-9,-3,-23,0,-1,i,-26,
Cc1ccc(C2CC(=O)C=C(NCc3ccccc3)C2)cc1 (centres undefined),53,-14,-4,-15,-1,-5,nt,-13,
Cc1cc(OCCN2CCCC2)cc(C(C)C)c1,2,1,2,nt,7,9,i,-9,
COc1ccc(C2C(C(=O)c3cccs3)=C(O)C(=O)N2c2cccc(C)n2)cc1 (centres undefined),4,2,9,-4,-4,-1,i,nt,
COc1ccc(Nc2cc(C(=O)NCc3ccccn3)c3ccccc3n2)c(OC)c1,-3,7,4,nt,nt,nt,i,nt,
Cc1cc(C)c(N(C(=O)CN2C(=O)c3ccccc3S2(=O)=O)C(C(=O)NCC2CCCO2)c2ccc(F)cc2)c(C)c1 (centres undefined),nt,-11,-5,nt,-22,-13,i,nt,
Cc1n[nH]c(C)c1CCNC(=O)C1CCC(=O)N(Cc2ccccc2F)C1 (centres undefined),2,7,-3,2,-3,2,i,-20,
CCc1ccc(-c2c(C)sc(NC(C)=O)c2C(N)=O)cc1,14,7,-8,46,-3,-3,i,29,
COC(=O)N1CCCCC1c1cc(C(=O)Nc2ccccc2Cl)no1 (centres undefined),nt,nt,nt,22,-3,1,nt,-6,
CCCN(CCC)C(=O)Cn1ccc(=N)c2ccccc21,-3,-5,-10,nt,1,7,i,-15,
C=CCn1c(-c2sc(-c3ccccc3)nc2C)n[nH]c1=S,-12,2,-6,-22,-2,1,i,nt,
Cc1ccc(-c2nc(CS(=O)(=O)CC(=O)N3CCOCC3)c(C)o2)cc1,-11,10,2,-7,2,0,i,nt,
CCOC(=O)CC(NC(=O)c1cccc2c1C(=O)N(Cc1cccnc1)C2)c1ccc(OCC)c(OC)c1 (centres undefined),25,-11,-7,-27,-1,1,i,nt,
O=C(NCCc1ccccc1)c1ccc2c(c1)OCCCO2,10,-6,5,50,1,0,i,-94,
CCCCNC(=O)c1onc(CSc2ccc(C)c(C)c2)c1C(=O)O,3,6,-3,-32,2,2,i,-22,
CC(C)(C)c1ccc2c(c1)OC(C(=O)N/N=C\c1ccc(-c3cccc(C(=O)O)c3)o1)CO2 (centres undefined),-6,73*,68*,-7,-1,4,i,nt,
Cc1c(C(=O)NCc2ccc3c(c2)OCO3)oc2ccccc12,2,-2,2,-16,0,0,i,-15,
Cc1cnc(C(=O)N2CCN(S(=O)(=O)c3ccc(F)c(F)c3F)CC2)cn1,0,nt,nt,nt,6,-2,nt,-8,
O=C1CC(N2CCc3ccccc32)C(=O)N1c1ccc(F)cc1 (centres undefined),-15,-2,0,24,2,-2,i,6,
Cc1cc(C(C)(C)C)ccc1Oc1cccc2c1S(=O)(=O)N(C1CCCC1)CC(COCc1ccccc1)O2 (centres undefined),nt,nt,nt,23,-2,-13,nt,-13,
COc1ccc(C2C=C(c3ccc(C)c(C)c3)Nc3ncnn32)c(OC)c1OC (centres undefined),27,-1,5,-72,-3,-9,i,-29,
COc1ccc(/C=C/CN2CCN(Cc3ccc(F)cc3)C(CCO)C2)cc1 (centres undefined),-10,-4,-3,-5,3,6,i,-13,
COc1ccc(S(=O)(=O)N(CC(=O)N2CCN(c3ccccc3)CC2)c2ccccc2)cc1,-1,-6,4,3,4,-2,i,nt,
NS(=O)(=O)c1ccc(CCNC(=O)c2cc(S(=O)(=O)N3CCCCC3)ccc2Cl)cc1,nt,nt,nt,27,-1,1,nt,-6,
COc1cc(C(=O)Nc2cc(Cl)ccc2C)c(-n2cnnn2)cc1OC,-3,-7,0,-14,5,-2,i,-9,

# A draw from above in order of SMILES length, largest number first:
SMILES,CSC inhib,eIF4H inh,PABP polyA inh,Env fusion inh,MT1-MMP act inh,MT1-MMP act inh RFP,Rce1 inhib,Yeast UUG start,others
Cc1cc(C(C)(C)C)ccc1Oc1cccc2c1S(=O)(=O)N(C1CCCC1)CC(COCc1ccccc1)O2 (centres undefined),nt,nt,nt,23,-2,-13,nt,-13,
NS(=O)(=O)c1ccc(CCNC(=O)c2cc(S(=O)(=O)N3CCCCC3)ccc2Cl)cc1,nt,nt,nt,27,-1,1,nt,-6,
COc1ccc(/C=C/CN2CCN(Cc3ccc(F)cc3)C(CCO)C2)cc1 (centres undefined),-10,-4,-3,-5,3,6,i,-13,
COc1cc(C(=O)Nc2cc(Cl)ccc2C)c(-n2cnnn2)cc1OC,-3,-7,0,-14,5,-2,i,-9,
O=C1CC(N2CCc3ccccc32)C(=O)N1c1ccc(F)cc1 (centres undefined),-15,-2,0,24,2,-2,i,6,

# Screening results from PubChem.
